Mtb growth: Mycobacterium tuberculosis H37Rv growth inhibition, putative kinase inhibitor library, confirmatory dose response (AID 2842); inhibition, % at 10 µg/mL; hits with a dose series show IC90 in µg/mL; 5.2% of 24,000 active; M. tuberculosis H37Rv growth inhibition; higher % means a stronger effect; some inactives read as strong as hits;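 active means confirmed in a dose series; about a fifth of its hits are not listed in these tables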;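 further: bacteria incubated one week before Alamar blue readout; 0% = bacteria only wells and 100% = bacteria with high antibiotic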
Numbers without * were called inactive. These rows are one share of the data; rates above refer to the full screens.

SMILES | Mtb growth
O=c1[nH]c2c(Cl)cccc2c(=O)o1 | -3%
Nn1c(SCC(=O)Nc2ccccc2C(F)(F)F)nncc1=O | -7%
COc1ccc2nc(N3CCN(c4nc5ccccc5s4)CC3)sc2c1 | -8%
O=C(CSc1nc2[nH]ncc2c(=O)[nH]1)Nc1ccc(Br)cc1 | 4%
CCOC(=O)c1[nH]c(C)c(/C(O)=C2\C(=O)C(=O)N(CCN(C)C)C2c2cccnc2)c1C (configuration not stated) | -4%
CC(C)CCn1c(SCc2ccc(Cl)cc2)nc2c1c(=O)n(C)c(=O)n2C | 12%
Cc1cccc(NC(=O)CSc2nnc(-c3cccnc3)n2-n2cccc2)c1 | 6%
N#Cc1ccc(C(=O)Nc2nnc(-c3cccs3)o2)cc1 | 69%

Later entries:
SMILES | Mtb growth
Cc1cc(C)cc(C(=O)NCCc2cc3ccc(C)c(C)c3[nH]c2=O)c1 | 1%
O=C1NCCc2c(OCc3ccccc3F)cccc21 | -1%
Nc1nc(SCc2c(F)cccc2Cl)[nH]c(=O)c1NC(=O)c1ccc(F)cc1 | -9%
Cc1ccc(-c2nnc(NC(=O)CCS(=O)(=O)c3ccccc3)o2)c(C)c1 | 7%
CCOc1ccccc1NC(=O)CSc1nc(N)c(NC(=O)c2ccco2)c(=O)[nH]1 | 6%
O=C(NCCSc1ncc(-c2ccccc2)[nH]1)c1ccc(Cl)cc1 | 8%
O=C1NC(=Nc2ccccc2)SC1Cc1ccc(Cl)cc1 (configuration not stated) | 80%
Cc1c(C(N)=O)sc2ncn(CC(=O)N3CCCC3)c(=O)c12 | 1%

Continued:
SMILES | Mtb growth
O=C(O)c1cccc(-n2c(O)c(C=C3N=c4ccccc4=N3)sc2=S)c1 | 1%
Cc1cc(-n2c(C)nc3ccccc3c2=O)ccc1NS(=O)(=O)c1cc([N+](=O)[O-])ccc1Cl | -31%
Cc1ccc(C(=O)Nc2c(N)nc(SCC(=O)NCc3ccco3)[nH]c2=O)cc1 | -15%
O=C(CSc1nc2c(c(=O)n1-c1ccccc1)SCC2)Nc1ccc(F)cc1F | 8%
COc1ccccc1NC(=O)c1oc2ccccc2c1NC(=O)C(C)(C)C | -4%
Cc1ccc(NS(=O)(=O)c2cc3c4c(c2)CCC(=O)N4CCC3)cc1Cl | 7%
Cc1ccc2cc(CCNC(=O)/C=C\c3ccc4c(c3)OCO4)c(=O)[nH]c2c1 | -6%
O=C(Cn1cnc2c(cnn2-c2ccccc2)c1=O)Nc1ccc(F)cc1F | 2%

Entries above with an aryl methoxy group, in the order listed:
SMILES | Mtb growth
COc1ccc2nc(N3CCN(c4nc5ccccc5s4)CC3)sc2c1 | -8%
COc1ccccc1NC(=O)c1oc2ccccc2c1NC(=O)C(C)(C)C | -4%

Continuation.
SMILES | Mtb growth
Cc1nc2sc(C(c3cccs3)N3CCCCC3)c(O)n2n1 (configuration not stated) | -5%
O=C(CC(c1ccccc1)c1ccccc1)Nc1c(C(=O)Nc2ccc3c(c2)OCO3)oc2ccccc12 | 3%
COCCCNC(=O)c1c(N)n(/N=C/c2cccnc2)c2nc3ccccc3nc12 | 0%
O=c1cnnc(N2CCCCC2)[nH]1 | -8%
O=C(CSc1nnc(-c2ccncc2)o1)Nc1cccc(Cl)c1 | -6%
Cc1ccc(Cn2c(SCC(C)C)nc3c2c(=O)n(C)c(=O)n3C)cc1 | 73%
CC(C)CC1C(C#N)=C(N)OC2=C1C(=O)CCC2 (configuration not stated) | 3%
CN(c1ccccc1)S(=O)(=O)c1ccc(C(=O)Nc2nc(-c3ccc(C(C)(C)C)cc3)cs2)cc1 | 20%

(list continues)
SMILES | Mtb growth
COC(=O)c1ccc(CSc2nnc(NC(=O)Nc3ccc(F)cc3)s2)o1 | -16%
CSc1nc2ccc3nc(Nc4nc5ccc(F)cc5s4)sc3c2s1 | 1%
Cc1nc2c(ccc3nc(Nc4nc5ccc(Cl)cc5s4)sc32)s1 | 7%
COc1ccc(-n2c(=O)[nH]c3c(C(N)=O)nc(-c4ccco4)nc32)cc1 | 3%
CCc1ccc(NC(=O)CSc2nc(N)c(NC(=O)c3cccs3)c(=O)[nH]2)cc1 | 17%
COc1cc2ccccc2cc1C(=O)Nc1nc(C)c(C(C)=O)s1 | 0%
COc1cccc(C2NC(=S)NC(C)=C2C(N)=O)c1 (configuration not stated) | -8%
CC(Oc1cc2oc(=O)c3c(c2cc1Cl)CCC3)C(=O)c1ccccc1 (configuration not stated) | -2%

(continued)
SMILES | Mtb growth
Cc1ccc(NC(=O)c2ccc(S(=O)(=O)N3CCCCC3)cc2)c(C)c1 | 3%
CC(C)C(=O)Oc1ccc2c(=O)c(Oc3ccc4ccccc4c3)coc2c1 | -9%
O=C(N=Nc1c(O)[nH]c2c(Cl)cc(Cl)cc12)c1ccccc1O | 41%
N#Cc1ccccc1NC(=O)C(=O)Nc1cc2c3c(c1)CCC(=O)N3CCC2 | 5%
O=C(CSc1nc2c(c(=O)n1-c1ccc(Cl)cc1)SCC2)NCc1ccccc1 | 11%
COc1ccccc1NC(=O)c1ccc(S(=O)(=O)N(C)C)cc1 | 1%
CC1CC(C)CN(S(=O)(=O)c2ccc(C(=O)Nc3nc(-c4ccc(F)cc4)cs3)cc2)C1 (configuration not stated) | 3%
COc1ccccc1OCCCN1C(=O)C(=O)c2cccc(C)c21 | 60%

(cont.)
SMILES | Mtb growth
O=C(CSc1ccc2nnc(-c3cccs3)n2n1)c1ccccc1 | -5%
Cc1ccccc1NC(=O)CSc1ccnc2c1c(=O)n(C)c(=O)n2C | 0%
O=C(Nc1nc(-c2ccc3ccccc3c2)cs1)c1ccc(N2C(=O)CCC2=O)cc1 | 25%
O=C(Nc1cc2c3c(c1)CCC(=O)N3CCC2)c1ccc(Br)cc1 | -5%
NC(=O)c1oc2ccccc2c1NC(=O)c1cccc2ccccc12 | -7%
Cc1nc2c(ccc3nc(Nc4nc5cc6c(cc5s4)OCO6)sc32)s1 | 3%
Cc1ccccc1NC(=O)c1cc2c(=O)n3ccccc3nc2n(CCc2ccccc2)c1=N | 3%
COc1ccc(N2CC(NC(=O)c3c(F)cccc3Cl)CC2=O)cc1 (configuration not stated) | 12%

Copied from the list.
O=C(Nc1cc2c3c(c1)CCC(=O)N3CCC2)c1ccc(Br)cc1 in Mtb growth = -5%
Cc1nc2c(ccc3nc(Nc4nc5cc6c(cc5s4)OCO6)sc32)s1 in Mtb growth = 3%
COc1ccc(N2CC(NC(=O)c3c(F)cccc3Cl)CC2=O)cc1 (configuration not stated) in Mtb growth = 12%
Cc1ccccc1NC(=O)c1cc2c(=O)n3ccccc3nc2n(CCc2ccccc2)c1=N in Mtb growth = 3%
NC(=O)c1oc2ccccc2c1NC(=O)c1cccc2ccccc12 in Mtb growth = -7%
Cc1ccccc1NC(=O)CSc1ccnc2c1c(=O)n(C)c(=O)n2C in Mtb growth = 0%
O=C(CSc1ccc2nnc(-c3cccs3)n2n1)c1ccccc1 in Mtb growth = -5%

A draw from above in order of number of heavy atoms, rising.
SMILES | Mtb growth
O=C(CSc1ccc2nnc(-c3cccs3)n2n1)c1ccccc1 | -5%
COc1ccc(N2CC(NC(=O)c3c(F)cccc3Cl)CC2=O)cc1 (configuration not stated) | 12%
O=C(Nc1nc(-c2ccc3ccccc3c2)cs1)c1ccc(N2C(=O)CCC2=O)cc1 | 25%

Additional compounds follow.
SMILES | Mtb growth
Cc1cc(Cl)ccc1N/C=C(\C#N)c1nc2ccccc2[nH]1 | 24µg/mL*
Cc1cc2cc(CCNC(=O)c3cccc(Br)c3)c(=O)[nH]c2cc1C | -4%
CN(C(=O)COc1ccccc1)c1nnc(C23CC4CC(CC(C4)C2)C3)s1 | 1%
Cc1cccc(-c2nnc(NC(=O)c3cc(Cl)ccc3[N+](=O)[O-])s2)c1 | -5%
Cc1ccc(-c2csc(/C(C#N)=C/Nc3cccc([N+](=O)[O-])c3)n2)cc1C | 4%
CCOC(=O)CNc1ncnc2nc[nH]c12 | -2%
Nc1ncnc(Nc2ccc(Oc3ccccc3)cc2)c1[N+](=O)[O-] | 4%
Cc1cccc(-n2nnc3c(=O)n(Cc4ccc(Cl)c(Cl)c4)cnc32)c1 | 7%

Further compounds:
SMILES | Mtb growth
COc1ccc(-n2c(=O)[nH]c3c(C(N)=O)nc(-c4ccccc4)nc32)cc1OC | -8%
CCOC(=O)c1nn(-c2ccc(C)cc2)c(=O)c2c(NC(=O)c3cccc(OC)c3)scc12 | -5%
O=C(/C=C\c1ccc2c(c1)OCO2)Nc1nnc(SCC(=O)N2CCOCC2)s1 | -11%
CNC(=O)c1ccsc1NC(=O)c1ccc(S(=O)(=O)N2CCCC2)cc1 | 3%
COc1ccc(C(=O)Nc2c(N)nc(SCc3ccccc3C)[nH]c2=O)cc1OC | -3%
CCOC(=O)c1oc2ccccc2c1NC(=O)c1ccc(Cl)cc1Cl | 1%
O=C(Nc1nc(-c2ccc(Cl)cc2)cs1)c1ccc(N2C(=O)CCC2=O)cc1 | 12%
CCS(=O)(=O)c1cccc(C(=O)Nc2nc(-c3ccc4ccccc4c3)cs2)c1 | 29%

Following part.
SMILES | Mtb growth
Cc1csc2ncc(C(=O)NCCC(c3ccccc3)c3ccccc3)c(=O)n12 | 7%
CC(=O)c1ccc(NC(=O)CSc2nc(N)c(NC(=O)c3ccc(Br)o3)c(=O)[nH]2)cc1 | -4%
COc1cccc(C(=O)NCCc2cc3ccc(C)c(C)c3[nH]c2=O)c1 | -1%
COc1ccc(-c2nnc(NC(=O)C(C)Sc3nncn3C)s2)c(OC)c1 (configuration not stated) | 3%
Cc1cccc(-c2nnn3c2nc(NCCc2ccc(Cl)cc2)c2ccccc23)c1 | -5%
COc1cccc(Cn2cc3c(-c4ccc(C)cc4)nnc-3c3cc4c(cc32)OCO4)c1 | 18%
Nc1nc(SCC(=O)Nc2cccc([N+](=O)[O-])c2)[nH]c(=O)c1NC(=O)c1ccccc1F | -13%
CCOc1ccc(-c2ccc(OCCNS(=O)(=O)c3ccc(Br)cc3)nn2)cc1 | 4%

The results go on:
SMILES | Mtb growth
Cc1cc(NC(=O)c2ccc(C(F)(F)F)cc2)nc2c1c(=O)oc1ccccc12 | -4%
C/C(=N\Nc1nc(=O)[nH]nc1C)c1ccccc1O | <0.2µg/mL*
COc1cc([N+](=O)[O-])cc2sc(NC(=O)CSc3ccc(Cl)cc3)nc12 | 2%
COc1ccccc1NS(=O)(=O)c1cc2c3c(c1)CCN3C(=O)CC2 | -9%
O=S(=O)(Oc1ccc2oc3ccccc3c2c1)c1cccs1 | 7%
COc1ccc(C(=O)Nc2c(N)nc(SCC(=O)N3CCN(c4ccccc4)CC3)[nH]c2=O)cc1 | -24%
Nc1nc(SCC(=O)N2CCCc3ccccc32)[nH]c(=O)c1NC(=O)c1ccc(F)cc1 | -9%
CCCc1nc(SCC(=O)Nc2ccccc2C)c2c(=O)n(C)c(=O)n(C)c2n1 | 2%

The list goes on:
SMILES | Mtb growth
CC(=O)N1CCc2c(sc(NC(=O)c3ccc(S(=O)(=O)N(C)C)cc3)c2C#N)C1 | -3%
Brc1cccc(-c2nnn3c2nc(NCCc2ccccc2)c2ccccc23)c1 | -6%
COC(=O)C1=C(N)Oc2cc(C)[nH]c(=O)c2C1c1cccc(OC)c1 (configuration not stated) | 8%
CC(=O)N1N=C(c2ccc(NS(C)(=O)=O)cc2)CC1c1ccc2c(c1)OCO2 (configuration not stated) | -6%
CCOC(=O)C1=C(C)N=c2s/c(=C3\C(=O)Nc4ccccc43)c(=O)n2C1c1cccs1 (configuration not stated) | -8%
O=C(Nc1ccc([N+](=O)[O-])cc1C(=O)c1ccccc1)c1ccccc1Cl | 16%
CCOc1ccc(-c2nnc3c4cc5c(cc4n(Cc4ccc(F)cc4)cc2-3)OCO5)cc1 | 47%
CCCCNC(=O)c1c(N)n(/N=C/c2ccco2)c2nc3ccccc3nc12 | -13%

(list continues)
SMILES | Mtb growth
CCOc1ccc(NC(=O)c2oc3ccccc3c2NC(=O)c2ccc(Br)o2)cc1 | 9%
Cc1ccc(-n2c(N)cc(=O)nc2SCC(=O)NC2CCCCC2)cc1C | -32%
O=C(NC1CC(=O)N(c2ccc3c(c2)OCCO3)C1)N1CCN(Cc2ccccc2)CC1 (configuration not stated) | 3%
Cc1cc(OC(=O)c2ccc(OC(C)C)cc2)c([N+](=O)[O-])c(=O)[nH]1 | -3%
COC(=O)c1c(NC(=O)c2ccc(OC)cc2)sc2c1CCN(C(C)=O)C2 | 3%
Cc1ccc(-c2nnc(NC(=O)c3ccc4ccccc4c3)s2)cc1 | 0%
O=C(CCc1n[nH]c(=O)[nH]c1=O)N1CCOCC1 | -12%
O=C(O)CCC(=O)NNC(=O)CSc1nc2ccccc2[nH]1 | -15%

Next section:
SMILES | Mtb growth
CCC(Sc1ccccc1)C(=O)Nc1nnc(-c2ccccc2C)s1 (configuration not stated) | -5%
Cc1nn(-c2ccccc2)c2sc(C(=O)NCc3cccnc3)cc12 | 6%
N#Cc1c(-c2ccccc2)cn2c1[nH]c(=O)c1ccccc12 | -9%
CCOC(=O)c1ccccc1NC(=O)CSc1nnc(-c2c[nH]c3ccccc23)n1C | 8%
O=S(=O)(Nc1ccc2c(c1)N(S(=O)(=O)c1cccs1)CCC2)c1ccc2c(c1)OCCO2 | -11%
Cc1ccc(S(=O)(=O)N(C)CCCC(=O)Nc2ccc(Cl)cc2)cc1 | 68%
CCC(Sc1nc2ccccc2s1)C(=O)Nc1nnc(C(C)C)s1 (configuration not stated) | 16%
CCC(C)Sc1nc2c(c(=O)[nH]c(=O)n2C)n1CC(O)COc1ccc(Cl)cc1 (configuration not stated) | 4%

(next part)
SMILES | Mtb growth
COc1ccc(OC)c(N2CC(c3nc4ccccc4[nH]3)CC2=O)c1 (configuration not stated) | 3%
O=C(Oc1coc(CSc2ncccn2)cc1=O)c1ccc(Br)cc1 | -12%
Nc1nc(SCC(=O)NCc2ccc3c(c2)OCO3)[nH]c(=O)c1NC(=O)c1ccc(F)c(F)c1 | -4%
COC(=O)c1ccc(C(=O)Nc2nc(C)c(C(C)=O)s2)cc1 | 3%
O=C(CSc1ncnc2c1oc1ccccc12)Nc1ccc(Br)cc1 | 11%
Cc1c(C)n2c(SCc3ccc(Br)cc3)nnc2[nH]c1=O | -2%
CCOC(CNc1ncnc2c1cnn2C)OCC | 1%

Screening results deposited in PubChem BioAssay by Southern Research Institute.
